# MT1-MMP act inh – blocks activation of human MT1-MMP. P50281. HT1080 RFP-PRO-GFP cells, GFP/RFP ratio fluorescence, overnight; percent of plate control window, DMSO zero. GFP/RFP ratio change, % at 20 µM. hit rate 0.061% among 360,000. AID 651647;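 active = GFP/RFP ratio change of at least 30% with cell ATP level not reduced by more than half and red fluorescence within 50% of control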; note: strong numbers were not always called active
#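 Material – HT1080 RFP-PRO-GFP cells · Control set – DMSO wells and RFP-L50D-GFP cells · Incubation – overnight cell settling, then overnight compound exposure, 37 °C, 5% CO2 · Compound dosing – single-point 20 µM compound, 1% DMSO · Read-out – GFP/RFP fluorescence ratio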
# PABP polyA inh – PABP-poly(A) binding inhibition. P11940. PABP-poly(A) RNA binding, fluorescence polarization. inhibition, % at 35 µM. hit rate 1% among 290,000. AID 2014;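 active = 50% or more with normal probe brightness, or confirmed in later tests; inconclusive = above 50% with abnormal brightness, or retests that disagree; inactive = below 50% or failed in later tests; about a fifth of its hits are not listed in these tables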;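 note: calls also rest on retests at 20 µM and on dose response follow-up; controls were probe without protein and protein plus probe with vehicle; some compounds called inactive have numbers as strong as hits; many hits fall short of the cut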
# Target sequence (P11940 whole entry, looked up): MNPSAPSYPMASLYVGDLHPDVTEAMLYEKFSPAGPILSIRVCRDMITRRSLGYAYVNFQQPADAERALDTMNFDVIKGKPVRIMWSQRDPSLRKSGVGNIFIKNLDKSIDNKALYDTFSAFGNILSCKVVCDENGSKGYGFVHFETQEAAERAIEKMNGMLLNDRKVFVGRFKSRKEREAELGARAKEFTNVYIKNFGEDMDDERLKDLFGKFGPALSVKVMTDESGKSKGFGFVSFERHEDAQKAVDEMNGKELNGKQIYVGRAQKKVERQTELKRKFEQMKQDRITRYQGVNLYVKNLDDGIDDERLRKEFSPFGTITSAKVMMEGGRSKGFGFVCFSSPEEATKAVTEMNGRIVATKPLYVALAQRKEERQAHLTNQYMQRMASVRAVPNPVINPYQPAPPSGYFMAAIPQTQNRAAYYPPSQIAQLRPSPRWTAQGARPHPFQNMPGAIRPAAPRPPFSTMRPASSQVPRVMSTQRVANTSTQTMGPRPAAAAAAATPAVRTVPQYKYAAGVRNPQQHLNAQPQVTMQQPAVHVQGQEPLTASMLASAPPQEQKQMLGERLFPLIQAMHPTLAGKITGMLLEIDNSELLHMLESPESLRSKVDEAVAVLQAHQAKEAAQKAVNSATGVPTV
# Rce1 inh – blocks yeast Ras-converting enzyme | Q03530 | yeast membranes, quenched prenylated peptide cleavage fluorescence | calls only | hit rate 0.27% among 290,000 | AID 2563;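 active = fall in fluorescence gain of 50% or more versus controls, with final raw signal at or below 3038400; inconclusive = same 50% fall but final raw signal above 3038400; inactive = fall in fluorescence gain under 50%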;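 note: plate controls were neutral control wells for no effect and wells lacking membranes for full effect; tested at 10 µM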
# eIF4H FP inh – inhibitors of RNA binding by human eIF4H; eIF4H fluorescence polarization binding assay; inhibition, % at 35 µM; hit rate 0.94% among 290,000; AID 2012;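 active = 50% or more with normal probe brightness, or confirmed in later tests; inconclusive = above 50% with abnormal brightness, or retests that disagree; inactive = below 50% or failed in later tests; about a fifth of its hits are not listed in these tables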;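 note: calls also rest on retests at 20 µM and on dose response follow-up; 0% = protein and probe with vehicle and 100% = probe without protein; strong numbers were not always called active; many hits fall short of the cut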
# UUG fidelity – yeast start codon fidelity modulation. hit rate 0.13% among 350,000. activity score, % at 18.7 µM. S. cerevisiae UUG-firefly luciferase reporter, luminescence/redox ratio. AID 602363;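 active = replicate mean at a twofold rise or more, about +100% in these data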;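 note: firefly luciferase made from a UUG start codon reports start codon fidelity; reporter light over untreated wells divided by growth signal over untreated wells; some hits fall short of that in this replicate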
# CSC inhib – blocks cancer stem cells; hit rate 1.1% among 300,000; inhibition, % at 7.5 µM; AID 2717; cancer stem cell-like cells viability, luminescence;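 active = mean at 75% or more and at least half the replicates too; inconclusive = mean and replicates disagree; tested in HMLE shEcad cells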;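 note: 0% = median of negative and 100% = median of positive control wells; the first replicate is given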
# Env fusion inh – HIV envelope-mediated fusion inhibition | HeLa-JRFL Env/CEM21 cell fusion, luciferase | inhibition, % at 12.3 µM | hit rate 1.1% among 360,000 | AID 651610;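 active = mean replicate inhibition score of at least 50 and every replicate individually at or above 50; inconclusive = only one of the two criteria met; inactive = mean below 50 and not all replicates reaching 50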;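 note: 0% = plate neutral controls and 100% = maraviroc near 300 nM; one replicate is shown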
# eIF4H FP inh retest – recorded beside eIF4H FP inh, whose call it bears; inhibition, %; compound at 20 µM; confirmation average;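 mean of two retest wells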
# PABP polyA inh retest – recorded beside PABP polyA inh, whose call it bears; inhibition, %; compound at 20 µM; confirmation repeats;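 mean of two retest wells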
# MT1-MMP act inh RFP – recorded beside MT1-MMP act inh, whose call it bears; RFP signal change, %; measured here: RFP expression control read;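 0 = vehicle wells; hits needed this value within 50% of zero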
# Starred values were filed as active, the others as inactive; i = inactive; ? = inconclusive; . = not tested or not shown; + = active, no number. A portion of the library, so the mix of outcomes need not match the whole.
# Sample of the layout, 13 compounds:
SMILES,MT1-MMP act inh,MT1-MMP act inh RFP,PABP polyA inh,Rce1 inh,eIF4H FP inh,UUG fidelity,CSC inhib,Env fusion inh,others
CCN(CC)S(=O)(=O)c1cccc(NC(=O)CSc2nnc(N)s2)c1,0.9,-4.1,-4.4,i,-3.5,.,-15.1,4.4,
Cc1cc(C)c(OCC(=O)OCC(=O)NCc2ccco2)c(C)c1,-9.9,-3.9,.,.,.,20.7,.,-9.4,
O=C(c1ccccc1)N1CCCC(C(=O)N2CCCCCC2)C1 (configuration not stated),1.2,-0.5,-2.6,i,7.8,-17.4,-3.5,-9.7,
Cc1csc(SCC(=O)Nc2ccc(CC#N)cc2)n1,1.3,2.4,.,.,.,-13.7,.,-5.0,
O=C(CC(CC(=O)c1ccccc1)c1ccccc1)c1ccccc1,-0.2,1.0,-2.3,i,-10.1,-11.3,6.1,5.5,
CNC(=O)Cc1nc2ccccc2n1CC(=O)Nc1cc(C)cc(C)c1,2.5,4.4,0.6,i,-17.0,-25.4,-19.8,0.1,
COc1cccc(-c2nn(C)c3sc(C(=O)N4CCN(c5ccccc5)CC4)cc23)c1,-8.4,-17.7,2.8,i,1.3,-3.7,24.4,.,
O=C(CN1C(=O)NC2(CCCC2)C1=O)OCc1ccc(Br)cc1,-1.5,0.9,.,i,.,-7.5,-2.5,-43.3,
CCOC(=O)c1c(CN2CCN(CC#N)CC2)n(C)c2cc(Br)c(OC)cc12,-3.0,-4.9,0.3,i,-2.8,-8.7,9.5,2.7,
Cn1c(=O)c2c(nc3n2CC(O)CN3c2ccccc2)n(C)c1=O (configuration not stated),-1.5,-0.4,.,i,.,.,-1.8,-4.8,
COc1ccc(-c2nn(-c3ccccc3)cc2C(=O)Nc2ccc(C(=O)O)cc2)cc1OC,-3.1,0.0,4.4,i,-0.3,-2.8,.,2.4,
COc1cc(NC(=O)C/C(C)=N/NC(=O)c2cccc(O)c2)c(OC)cc1Cl,1.8,12.8,-9.5,+,-4.2,.,1.3,.,
CN(C)CCCN(C(=O)c1ccco1)c1nc2ccc(Cl)cc2s1,-1.0,-1.1,3.0,i,9.9,-14.2,-5.5,?,

# All compounds of this part, from the start:
SMILES,MT1-MMP act inh,MT1-MMP act inh RFP,PABP polyA inh,Rce1 inh,eIF4H FP inh,UUG fidelity,CSC inhib,Env fusion inh,others
CCN(CC)S(=O)(=O)c1cccc(NC(=O)CSc2nnc(N)s2)c1,0.9,-4.1,-4.4,i,-3.5,.,-15.1,4.4,
Cc1cc(C)c(OCC(=O)OCC(=O)NCc2ccco2)c(C)c1,-9.9,-3.9,.,.,.,20.7,.,-9.4,
O=C(c1ccccc1)N1CCCC(C(=O)N2CCCCCC2)C1 (configuration not stated),1.2,-0.5,-2.6,i,7.8,-17.4,-3.5,-9.7,
Cc1csc(SCC(=O)Nc2ccc(CC#N)cc2)n1,1.3,2.4,.,.,.,-13.7,.,-5.0,
O=C(CC(CC(=O)c1ccccc1)c1ccccc1)c1ccccc1,-0.2,1.0,-2.3,i,-10.1,-11.3,6.1,5.5,
CNC(=O)Cc1nc2ccccc2n1CC(=O)Nc1cc(C)cc(C)c1,2.5,4.4,0.6,i,-17.0,-25.4,-19.8,0.1,
COc1cccc(-c2nn(C)c3sc(C(=O)N4CCN(c5ccccc5)CC4)cc23)c1,-8.4,-17.7,2.8,i,1.3,-3.7,24.4,.,
O=C(CN1C(=O)NC2(CCCC2)C1=O)OCc1ccc(Br)cc1,-1.5,0.9,.,i,.,-7.5,-2.5,-43.3,
CCOC(=O)c1c(CN2CCN(CC#N)CC2)n(C)c2cc(Br)c(OC)cc12,-3.0,-4.9,0.3,i,-2.8,-8.7,9.5,2.7,
Cn1c(=O)c2c(nc3n2CC(O)CN3c2ccccc2)n(C)c1=O (configuration not stated),-1.5,-0.4,.,i,.,.,-1.8,-4.8,
COc1ccc(-c2nn(-c3ccccc3)cc2C(=O)Nc2ccc(C(=O)O)cc2)cc1OC,-3.1,0.0,4.4,i,-0.3,-2.8,.,2.4,
COc1cc(NC(=O)C/C(C)=N/NC(=O)c2cccc(O)c2)c(OC)cc1Cl,1.8,12.8,-9.5,+,-4.2,.,1.3,.,
CN(C)CCCN(C(=O)c1ccco1)c1nc2ccc(Cl)cc2s1,-1.0,-1.1,3.0,i,9.9,-14.2,-5.5,?,
O=C(NCCN1CCCC1)c1ccc(Cn2c(=S)[nH]c3ccc(Br)cc3c2=O)cc1,1.5,1.2,-6.6,i,-8.3,-2.5,-5.1,14.0,
CCC1CCc2c(sc(NC(=O)c3cnccn3)c2C(N)=O)C1 (configuration not stated),-2.9,-2.0,-3.1,i,8.7,4.7,-6.5,-27.1,
CN(CC(=O)Nc1cccc(F)c1)C(=O)c1ccc(-n2cncn2)c([N+](=O)[O-])c1,2.7,3.2,.,i,.,-21.7,-6.8,2.4,
Cc1oc(-c2ccccc2Cl)nc1CN1CCCN(C(=O)c2ccco2)CC1,-3.8,1.7,-4.5,i,-8.8,9.6,14.0,-8.0,
Cc1ccnc(NC(c2ccccc2)c2ccc3cccnc3c2O)c1 (configuration not stated),5.0,0.5,.,.,.,-4.5,.,-19.3,
Cc1[nH]c2ccccc2c1N=Nc1ccccc1C(=O)O,-0.1,3.5,4.5*,i,98.7,-6.1,14.6,.,eIF4H FP inh retest=49.3;PABP polyA inh retest=79.3*
COc1ccc(/C=N/n2cncn2)cc1Cn1nc(C)c([N+](=O)[O-])c1C,2.0,-2.9,10.6,i,-3.8,-19.3,4.4,.,
CC12CN(S(=O)(=O)c3ccccc3)CC(C)(CN(S(=O)(=O)c3ccccc3)C1)C2,-4.6,2.0,-7.2,i,4.1,-14.4,6.6,-30.6,
CCN(CC(=O)NC(C)(C)C)Cc1cc(=O)n2c(-c3ccccc3)csc2n1,-2.1,-0.2,16.3,i,21.7,-3.2,-13.5,-0.9,
Cc1ccccc1/C=C/c1cccc[n+]1C,-7.5,-7.0,.,i,.,-7.5,-11.5,20.6,
Oc1c(Cl)cc(Cl)cc1/C=N/c1nc(-c2ccc(Cl)cc2)cs1,-1.7,-4.8,21.3,i,2.6,-22.0,20.9,.,
O=C(c1ccco1)N1CCN(S(=O)(=O)c2cccc3nsnc23)CC1,-1.2,0.6,4.8,i,4.8,6.7,-10.5,-13.2,

# Continued; the last two above are carried over.
SMILES,MT1-MMP act inh,MT1-MMP act inh RFP,PABP polyA inh,Rce1 inh,eIF4H FP inh,UUG fidelity,CSC inhib,Env fusion inh,others
Oc1c(Cl)cc(Cl)cc1/C=N/c1nc(-c2ccc(Cl)cc2)cs1,-1.7,-4.8,21.3,i,2.6,-22.0,20.9,.,
O=C(c1ccco1)N1CCN(S(=O)(=O)c2cccc3nsnc23)CC1,-1.2,0.6,4.8,i,4.8,6.7,-10.5,-13.2,
O=C1CCCC/C1=C/NCc1ccc(F)cc1,-1.6,5.3,4.0,i,9.2,.,-4.2,-15.2,
O=C(Nc1ccccc1-c1ccccc1)c1ccccc1[N+](=O)[O-],-2.6,0.0,-0.8,i,-5.2,-10.5,2.2,17.9,
COCCCn1c(=S)[nH]c(C)c(C)c1=O,1.2,2.2,10.7,i,-4.5,.,-2.4,-9.8,
COc1ccc(-n2c(=O)c(CCC(=O)N3CCN(c4cccc(OC)c4)CC3)nc3ccccc32)cc1,0.5,1.8,.,.,.,-7.3,.,-5.7,
COc1cc(/C=N/NC(=O)CCc2ccccc2)ccc1O,5.2,1.7,-1.7,i,-0.6,-13.5,1.1,18.2,
Cc1csc(SCC(=O)Nc2ccc(C)c(S(=O)(=O)N(C)C)c2)n1,6.8,-0.2,.,.,.,-5.2,.,-7.9,
O=C(CCN1C(=O)c2ccccc2C1=O)Nc1ccc(S(=O)(=O)N2CCOCC2)cc1,-2.5,2.8,3.5,i,-8.8,-1.9,.,.,
COc1cc(CNc2nnnn2C)ccc1OCc1c(F)cccc1Cl,0.3,0.1,2.2,i,-7.5,.,-4.3,-12.1,
Cc1ccnc(NC(=O)CCNC(=O)c2ccc(Cl)cc2)c1,-2.2,0.5,1.9,i,-3.6,-23.7,-7.2,-54.9,
CCSc1cc(C)nc2c(-c3ccccc3)cnn12,0.9,5.9,1.3,i,-6.9,.,12.6,-145.4,
CC(=O)Nc1ccc(NC2=CC(=O)CC(C)(C)C2)cc1,6.1,6.4,-5.4,i,-1.7,-2.8,1.3,.,
CCOC(=O)c1ccc(NC(=O)CCn2nnc3ccccc32)cc1,-1.4,-1.8,5.1,i,1.7,-3.6,-8.1,.,
CCOC(=O)c1cc(CC)sc1/N=C/C1C(=O)CC(C)(C)CC1=O,5.7,4.3,-4.4,i,3.9,.,-7.6,.,
Cc1ccccc1C1c2[nH]c3ccccc3c2C[C@H]2C(=O)N(C3CCN(Cc4ccccc4)CC3)CC(=O)N12 (some centres not stated),-12.1,-7.1,-4.2,i,-4.7,-3.9,10.7,7.7,
Cc1cc(C)nc(N2CCCC(C(=O)NCc3ccccc3F)C2)n1 (configuration not stated),-2.2,-0.4,8.2,i,-0.9,.,-4.6,18.6,
COc1ccc(Cl)cc1C(=O)NCC(c1ccco1)N(C)C (configuration not stated),1.2,1.8,9.4,.,-5.1,-13.7,-9.7,3.7,
CCN(C(=O)CSc1nc2ccccc2c(=O)n1-c1ccccc1F)C1CCS(=O)(=O)C1 (configuration not stated),1.6,1.0,.,.,.,-8.5,-26.8,.,
CCCC(C(=O)NCC1CCCO1)N(Cc1ccco1)C(=O)CNS(=O)(=O)c1ccccc1 (configuration not stated),.,.,-0.4,i,7.4,-22.6,-12.3,.,
O=C(NCc1ccco1)c1cc2c(s1)CSC2,.,.,47.5,i,70.9,.,-3.3,.,eIF4H FP inh retest=-0.7;PABP polyA inh retest=-0.8
O=C(NN=Cc1ccccc1)c1ccccc1,-2.1,-1.5,.,.,.,-15.5,.,-13.4,
Cc1cccc(N2C(=O)C3C4C=CC(CC4)C3C2=O)c1 (configuration not stated),1.3,-1.6,4.8,i,5.5,-38.1,-5.7,5.7,
O=S(=O)(NCC1CCCO1)c1cccc2nsnc12 (configuration not stated),2.2,5.1,3.0,i,2.8,-14.7,-2.4,-19.9,
Cc1c(Cl)cccc1NC(=O)CCC(=O)NNC(=O)c1ccccc1Cl,3.7,2.8,-1.3,i,-3.4,-12.9,-13.8,-33.7,
Cc1cnc(C(=O)OCC(=O)NC(C)c2ccccc2)cn1 (configuration not stated),-1.1,1.8,.,.,.,-12.1,-14.9,.,
CC(=O)N1CCN(S(=O)(=O)c2cccc(C(=O)Nc3nccs3)c2)CC1,-0.6,-4.7,-5.5,i,5.5,.,-8.4,-0.3,
Cc1ccc2c(=O)cc(C(F)F)oc2c1,2.2,2.7,6.6,i,-2.5,-8.7,-1.5,.,
CCSC1=NCCN1C(=O)Cc1ccc(-c2ccccc2)cc1,4.5,-1.8,-13.5,i,-11.2,.,-1.6,-4.9,
N#CC1=C(N)NC(SCC(=O)Nc2ccc(Br)cc2)=C(C#N)C12CCCCC2,7.4,-10.2,2.1,i,-4.7,3.5,45.9,.,
CCOC(=O)CC1(C)SC(NC(C)=O)=NN1C(C)=O (configuration not stated),0.2,3.3,-14.8,i,-4.4,.,-11.0,-2.3,
CCc1ccccc1NC(=O)COc1cccc(-n2cnnn2)c1,2.2,2.8,1.8,i,21.9,2.7,12.8,2.9,

# Bioassay records: PubChem BioAssay, several laboratories
